Source: PubChem
HIV Env fusion – inhibitors of HIV Env-mediated cell fusion | HeLa-JRFL Env/CEM21 cell fusion, luciferase | inhibition, % at 12.3 µM | actives 1.1% (n = 360,000);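 active = mean replicate inhibition score of at least 50 and every replicate individually at or above 50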;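 also: 0% = plate neutral controls and 100% = maraviroc near 300 nM; one replicate is shown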
Rce1 inh – yeast Ras-converting enzyme inhibition | yeast membranes, quenched prenylated peptide cleavage fluorescence | Q03530 | actives 0.27% (n = 290,000) | calls only;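 active = fall in fluorescence gain of 50% or more versus controls, with final raw signal at or below 3038400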;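 also: plate controls were neutral control wells for no effect and wells lacking membranes for full effect; tested at 10 µM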
Target sequence (Q03530 whole entry, looked up): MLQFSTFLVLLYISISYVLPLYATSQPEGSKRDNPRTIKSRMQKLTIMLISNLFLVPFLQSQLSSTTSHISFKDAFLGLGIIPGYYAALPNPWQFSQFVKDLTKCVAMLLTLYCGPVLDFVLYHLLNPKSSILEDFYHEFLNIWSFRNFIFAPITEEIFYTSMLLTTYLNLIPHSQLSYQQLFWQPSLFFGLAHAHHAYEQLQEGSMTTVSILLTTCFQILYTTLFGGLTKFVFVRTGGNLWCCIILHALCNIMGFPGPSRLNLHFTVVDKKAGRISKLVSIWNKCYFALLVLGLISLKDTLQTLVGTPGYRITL
MT1-MMP act inh – MT1-MMP (human) activation inhibition | P50281 | HT1080 RFP-PRO-GFP cells, GFP/RFP ratio fluorescence, overnight; percent of plate control window, DMSO zero | GFP/RFP ratio change, % at 20 µM | actives 0.061% (n = 360,000) | AID 651647;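 active = GFP/RFP ratio change of at least 30% with cell ATP level not reduced by more than half and red fluorescence within 50% of control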; also: strong numbers were not always called active
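Assay system: HT1080 RFP-PRO-GFP cells | Dosing: 20 µM single dose, 1% DMSO | Incubation: Cells overnight before dosing, compound overnight, 37 °C, 5% CO2 | Evaluation: GFP/RFP fluorescence ratio | Control set: DMSO-only wells and HT1080 RFP-L50D-GFP cell wells as references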
CSC inhib – blocks cancer stem cells. actives 1.1% (n = 300,000). cancer stem cell-like cells viability, luminescence. AID 2717. inhibition, % at 7.5 µM;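 active = mean at 75% or more and at least half the replicates too; tested in HMLE shEcad cells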;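 also: 0% = median of negative and 100% = median of positive control wells; the first replicate is given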
PABP FP inh – blocks human PABP binding to poly(A) RNA | fluorescence polarization | P11940 | actives 1% (n = 290,000) | inhibition, % at 35 µM;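 active = 50% or more with normal probe brightness, or confirmed in later tests; about a fifth of its hits are not listed in these tables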;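 also: calls also rest on retests at 20 µM and on dose response follow-up; controls were probe without protein and protein plus probe with vehicle; some compounds called inactive have numbers as strong as hits; many hits fall short of the cut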
Target sequence (P11940 whole entry, looked up): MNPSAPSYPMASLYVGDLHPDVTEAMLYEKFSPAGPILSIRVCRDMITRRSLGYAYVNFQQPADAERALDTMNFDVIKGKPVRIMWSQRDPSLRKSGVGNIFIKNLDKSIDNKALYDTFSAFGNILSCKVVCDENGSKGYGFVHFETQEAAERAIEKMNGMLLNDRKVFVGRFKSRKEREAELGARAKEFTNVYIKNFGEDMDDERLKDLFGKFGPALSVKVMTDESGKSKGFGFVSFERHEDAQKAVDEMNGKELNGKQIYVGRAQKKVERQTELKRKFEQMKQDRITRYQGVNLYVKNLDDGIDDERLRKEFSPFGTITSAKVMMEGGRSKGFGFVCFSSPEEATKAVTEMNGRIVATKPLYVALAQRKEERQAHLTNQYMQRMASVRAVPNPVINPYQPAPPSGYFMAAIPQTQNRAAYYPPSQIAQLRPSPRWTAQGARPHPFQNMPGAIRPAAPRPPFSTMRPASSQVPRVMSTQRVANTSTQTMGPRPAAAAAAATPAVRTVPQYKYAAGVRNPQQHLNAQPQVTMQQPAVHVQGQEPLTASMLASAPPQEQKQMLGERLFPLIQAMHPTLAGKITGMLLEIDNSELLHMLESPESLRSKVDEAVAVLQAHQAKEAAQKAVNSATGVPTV
eIF4H FP inh – inhibitors of RNA binding by human eIF4H | Q15056 | eIF4H fluorescence polarization binding assay | inhibition, % at 35 µM | actives 0.94% (n = 290,000) | AID 2012;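 active = 50% or more with normal probe brightness, or confirmed in later tests; about a fifth of its hits are not listed in these tables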;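 also: calls also rest on retests at 20 µM and on dose response follow-up; 0% = protein and probe with vehicle and 100% = probe without protein; strong numbers were not always called active; many hits fall short of the cut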
Yeast UUG start – alters start codon recognition fidelity in yeast | S. cerevisiae UUG-firefly luciferase reporter, luminescence/redox ratio | activity score, % at 18.7 µM | actives 0.13% (n = 350,000) | AID 602363;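 active = replicate mean at a twofold rise or more, about +100% in these data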;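 also: firefly luciferase made from a UUG start codon reports start codon fidelity; reporter light over untreated wells divided by growth signal over untreated wells; some hits fall short of that in this replicate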
eIF4H FP inh retest – further read-out of eIF4H FP inh, marked with its call; inhibition, %; compound at 20 µM; confirmation average;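 mean of two retest wells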
PABP FP inh retest – second read-out of PABP FP inh, no call of its own (marks repeat the call); inhibition, %; compound at 20 µM; confirmation repeats;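 mean of two retest wells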
MT1-MMP act inh RFP – further read-out of MT1-MMP act inh, marked with its call; RFP signal change, %; measured here: RFP expression control read;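 0 = vehicle wells; hits needed this value within 50% of zero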
Starred values were filed as active, the others as inactive; i = inactive; nt = not tested or not shown; & = joins results of further samples.

SMILES	HIV Env fusion	Rce1 inh	MT1-MMP act inh	MT1-MMP act inh RFP	CSC inhib	PABP FP inh	eIF4H FP inh	Yeast UUG start	others
CCOc1cc(N2CCOCC2)c(OCC)cc1NC(=O)c1c(-c2ccccc2Cl)noc1C	8.2	i	1.8	-2.0	-1.2	0.1	-0.1	-12.9
Cc1c(C(=O)CN2CCOCC2)[nH]c2ccccc12	nt	i	-3.5	7.4	-17.0	-2.0	0.2	-14.9
COc1ccccc1NC(=O)c1ccc(CN(c2cc(Cl)ccc2C)S(=O)(=O)c2ccccc2)cc1	nt	i	-2.0	-0.9	-0.9	-2.9	-4.8	0.5
CCCS(=O)(=O)c1c(S(=O)(=O)CCC)c2c3ccccc3ccn2c1C(N)=O	-18.6	i	1.0	3.2	-2.9	1.9	-2.0	-9.0
COCCCNC(=O)c1ccc(Cn2c(=O)c3ccccc3n(Cc3ccc(C)cc3)c2=O)cc1	-23.8	i	-9.0	-5.4	-0.7	-7.3	-4.4	-14.8
COc1cccc(-n2c(=O)c3cc(OC)c(OC)cc3n(CC(=O)Nc3cc(C)[nH]n3)c2=O)c1	14.3	i	1.1	1.9	-10.2	-5.2	-5.0	5.7
Cc1ccc2cccc(OCC(=O)Nc3ccc(N4CCOCC4)cc3)c2n1	2.7	i	2.4	-2.4	-2.7	-12.7	-4.6	nt
Cc1ccc(S(=O)(=O)N2CCC(Oc3cccc(C(F)(F)F)c3)CC2)cc1	16.8	i	-5.2	-14.5	16.3	9.6	2.4	-19.4
CC1CCC(NC(=O)c2[nH]c(C(F)(F)F)nc2-c2ccccc2)CC1 (stereo unspecified)	10.8	nt	-1.1	-2.1	nt	nt	nt	-1.8
Fc1ccc(C[n+]2csc3ccccc32)cc1	nt	i	-4.0	7.0	-2.1	-14.1	-12.4	-4.9
N#C/C(=C(/O)CN1CCOCC1)c1nc2ccccc2s1	nt	i	-2.1	2.6	-7.5	27.2	-4.1	-15.5
COc1ccc(NC(=O)C2CCCN2c2ccc(OC)c(OC)c2)cc1OC (stereo unspecified)	-18.4	i	3.0	-1.1	-6.6	14.5	1.8	-16.9
Cc1cc(OCC(=O)OCC(=O)N2CCc3ccccc3C2)ccc1Cl	nt	nt	-0.9	4.2	-4.9	nt	nt	-15.1
COc1cc(/C=N/N=C(\N)c2nonc2N)cc(OC)c1O	-17.5	i	1.5	5.0	-3.3	8.3	-9.3	nt
COc1ccc(C(=O)C2CCCN(Cc3cnc(N4CCOCC4)s3)C2)cc1F (stereo unspecified)	-12.4	i	10.7	-21.5	0.8	-0.9	5.5	9.2
Cc1nnc(SCc2ccc(Cl)cc2)n1CC1CCCO1 (stereo unspecified)	33.0	i	-1.4	-3.1	nt	7.4	3.1	-16.1
COc1ccc(NC(=O)Nc2ccccc2)cc1S(=O)(=O)N1CCCCC1	17.1	i	8.5	-4.8	-3.5	3.5	3.5	nt
Cc1cc(C)c2sc(N)nc2c1	-14.0	i	0.7	4.7	-7.2	-4.4	1.2	-18.5
CCC(CO)Oc1cc(NCc2ccccc2)c2ncn(C3CCCC3)c2c1 (stereo unspecified)	-13.8	nt	-5.7	0.1	nt	nt	nt	-1.1&-1.2
COc1cc2c(cc1NCc1ccccn1)oc1ccccc12	-36.3	i	-14.9	-4.4	6.3	0.1	-6.4	-23.3
CCc1cccc2c(C(=O)COC(=O)c3cccc(S(=O)(=O)N(C)C4CCCCC4)c3)c[nH]c12	9.8	i	0.5	2.1	5.4	-0.3	3.5	nt
CC(C)(C)c1ccc(COn2c(=O)c(-c3ccco3)[n+]([O-])c3ccccc32)cc1	-21.8	i	-19.9	7.2	11.4	36.9	18.5	-2.7
COc1ccc(NC(=O)CSc2nc3[nH]ncc3c(=O)n2-c2ccccc2OC)cc1OC	3.9	i	1.6	1.8	nt	-4.9	-0.3	-4.0
Cn1ncc(Br)c1C(=O)NC1CCCCCCC1	10.5	i	0.6	0.8	nt	4.2	6.5	-9.7
Oc1ccc(CN2CCCCC2)nc1-c1ccccc1	-76.9	i	-2.6	0.1	1.7	6.5	9.4	-9.1
CC(C)OCCCn1c(=O)c2ccccc2n2c(CCC(=O)NCc3ccccn3)nnc12	-7.9	i	-0.7	-0.4	4.3	8.0	-1.5	2.0
CC1CCCN(S(=O)(=O)c2ccc(N(C(=O)c3cnccn3)C(C(=O)NC3CCCCC3)c3cccs3)cc2)C1 (stereo unspecified)	42.8	i	1.1	-0.3	-11.3	50.2	-0.7	129.6*	eIF4H FP inh retest=10.7;PABP FP inh retest=-3.0
CC(=O)c1cc(-c2ccccc2)n(CC(=O)Nc2ccc(C)c(C)c2)c1C	20.9	i	-1.9	-1.3	-7.8	-3.0	-4.2	nt
CC(C)NC[C@H](O)COc1cccc2[nH]ccc12	27.5	i	-0.7	-1.8	-1.2	0.1	-12.2	-20.8
Cc1cccc(CNS(=O)(=O)c2ccc(-c3ccc(=O)[nH]n3)s2)c1	19.4	i	2.9	0.8	-2.7	3.3	2.1	-12.6
Nc1c(-c2ccccc2)nnn1Cc1ccccc1	4.4	i	4.3	4.0	-7.7	nt	nt	nt
COc1cc2cc(CN(CCO)S(=O)(=O)c3ccccc3Cl)c(=O)[nH]c2cc1OC	13.9	i	14.5	1.0	-10.5	6.3	9.3	nt
O=C(CCC1CCCN(C(=O)c2ccc3cc[nH]c3c2)C1)NCc1ccc(F)c(F)c1 (stereo unspecified)	-22.0	i	-0.8	-3.5	-7.2	-6.2	-1.6	-6.7
Cc1onc(-c2ccccc2)c1C(=O)NC(=S)NNC(=O)c1cccnc1	6.4	i	6.0	9.2	19.1	-0.7	4.2	-33.2
CCCCC(=O)Nc1nnc(S(=O)(=O)N2CCCc3ccccc32)s1	-5.9	i	0.4	-2.4	-5.6	-6.7	0.9	-19.4
CCOC(=O)C1CCCCN1Cc1cc(OC)ccc1OC (stereo unspecified)	10.8	i	-0.5	1.5	-6.9	16.1	5.4	-14.1
CCOc1cc2[nH]c(=S)n(CCc3ccc(OC)c(OC)c3)c(=O)c2cc1OCC	-90.8	i	nt	nt	16.8	-4.3	-1.5	-25.0
COc1ccc(NC(=O)N(Cc2ccc(C)cc2)Cc2ccccn2)c(OC)c1	19.3	i	-1.4	-3.1	-9.0	nt	nt	1.2
O=C(Cn1c(=O)cnc2ccccc21)N1CCN(S(=O)(=O)c2ccccc2Br)CC1	-2.7	i	0.6	2.5	-8.9	nt	nt	3.0
CCN(CC)c1ccc(NC(=O)COC(=O)Cc2ccsc2)cc1	4.7	nt	0.8	6.2	nt	nt	nt	-11.7
CCOC(=O)CSc1nnc(Cn2nnc(-c3ccccc3)n2)n1C	-20.6	i	17.5	-1.6	-5.5	-6.6	3.4	-13.6
COc1ccc(C(NC(=O)C2CCCCC2)c2c(O)ccc3ccccc23)cc1 (stereo unspecified)	-10.1	i	-28.8	-21.0	17.2	-1.8	3.4	3.4
Nc1ccc2nc(-c3ccccn3)[nH]c2c1	nt	i	14.2	13.6	14.9	4.1	41.7	-33.9
COC(=O)NCc1ccc(Cl)c(Cl)c1	nt	i	-0.6	-4.8	nt	5.0	0.8	0.9
O=C(COc1ccccc1F)NC1CCN(Cc2ccccc2)CC1	2.9	i	-1.0	-3.2	-5.9	0.9	-6.0	-11.5
COc1ccc(NC(=O)c2ccccc2NS(C)(=O)=O)cc1OC	nt	i	-7.9	0.1	4.5	9.9	-0.3	-14.5
CCC1c2ccc(C)n2CCN1C(=O)Nc1ccc(F)cc1 (stereo unspecified)	nt	i	-10.9	1.3	6.6	108.9*	112.6*	-6.6
CCOC(=O)c1ccc(NC(=O)c2nc[nH]c2C(=O)NCCCCCNC(=O)OC(C)(C)C)cc1	5.2	i	-0.5	-8.3	5.8	-4.0	1.1	-8.0
CSc1nc2c(cnn2-c2ccc(C)c(C)c2)c(=O)[nH]1	28.2	i	4.2	1.8	-1.9	-1.8	-7.5	-30.9
O=C(Cc1ccccc1)NC1(Cc2ccc(O)cc2)CCCCC1	-2.0	i	1.0	-2.1	-2.2	-13.6	-1.0	3.2
O=c1cc(-c2ccc(O)c(O)c2)oc2cc(O)c([C@@H]3O[C@H](CO)[C@@H](O)[C@H](O)[C@H]3O)c(O)c12	-29.9	nt	3.1	1.7	-1.3	nt	nt	-13.2
c1ccc2c(c1)[nH]c1c(NCC3CCCO3)ncnc12 (stereo unspecified)	nt	i	5.3	-13.3	-7.7	-8.6	-9.4	-20.7
Cc1cc(C)cc(N(CC(=O)Nc2ccc(Br)cc2)S(=O)(=O)c2c(C)[nH]c(=O)[nH]c2=O)c1	-2.6	i	9.2	4.5	0.5	7.7	4.1	9.9
CSc1ccc(S(=O)(=O)N2CCC(C(=O)N3CCOCC3)CC2)cc1	4.8	i	2.3	3.7	nt	-0.3	0.2	-15.6
Cc1nn(C2CCS(=O)(=O)C2)c(C)c1CN(C)C(=O)c1cccc(Cl)c1 (stereo unspecified)	1.8	nt	-2.9	2.1	-20.5	nt	nt	nt
O=S(=O)(c1ccc(SCc2ccccc2)nc1)N1CCCC1	-0.9	nt	3.7	-4.7	-2.5	nt	nt	-20.8
CCOC(=O)Nc1nnc(-c2ccc(OC)cc2)s1	nt	i	4.1	-2.1	1.2	6.6	-3.6	-15.2
CCC1=C(C(=O)OC)C(c2cc(OC)ccc2OC)C(C#N)=C(N)O1 (stereo unspecified)	-4.9	i	1.0	0.1	-7.8	-1.5	-15.1	-16.2
Cc1nn(-c2ccccn2)c2c1-c1nc(N)ncc1CC2	-268.6	i	-15.7	-9.9	-10.7	-2.1	7.4	-15.5
COc1ccc(-n2c(=S)[nH]c3c(oc4ccccc43)c2=O)cc1	-14.0	i	2.9	3.1	-0.1	-8.0	-0.7	-9.1

New compounds follow:
SMILES	HIV Env fusion	Rce1 inh	MT1-MMP act inh	MT1-MMP act inh RFP	CSC inhib	PABP FP inh	eIF4H FP inh	Yeast UUG start	others
O=C(Nc1cn(-c2ccccc2)nc1-c1cccs1)c1ccco1	nt	i	-3.0	-3.2	8.2	-4.7	-4.8	-14.0
CN(C)CCCNC(=O)CC(c1ccccc1)c1ccccc1O (stereo unspecified)	nt	nt	-0.9	2.3	-11.1	1.2	-5.1	-28.6
CCN(CC)CCNCC(=O)Nc1ccc(Oc2ccccc2)cc1	16.1	i	4.4	-3.9	35.8	-8.9	9.9	-13.7
COc1cccc2c(=O)c(C/C=C(/C)Cl)c(C)[nH]c12	nt	i	-0.8	2.1	-4.1	0.3	0.8	-11.3

A section from the list above, for reference:
SMILES	HIV Env fusion	Rce1 inh	MT1-MMP act inh	MT1-MMP act inh RFP	CSC inhib	PABP FP inh	eIF4H FP inh	Yeast UUG start	others
CCOc1cc(N2CCOCC2)c(OCC)cc1NC(=O)c1c(-c2ccccc2Cl)noc1C	8.2	i	1.8	-2.0	-1.2	0.1	-0.1	-12.9
Cc1c(C(=O)CN2CCOCC2)[nH]c2ccccc12	nt	i	-3.5	7.4	-17.0	-2.0	0.2	-14.9
COc1ccccc1NC(=O)c1ccc(CN(c2cc(Cl)ccc2C)S(=O)(=O)c2ccccc2)cc1	nt	i	-2.0	-0.9	-0.9	-2.9	-4.8	0.5
CCCS(=O)(=O)c1c(S(=O)(=O)CCC)c2c3ccccc3ccn2c1C(N)=O	-18.6	i	1.0	3.2	-2.9	1.9	-2.0	-9.0
COCCCNC(=O)c1ccc(Cn2c(=O)c3ccccc3n(Cc3ccc(C)cc3)c2=O)cc1	-23.8	i	-9.0	-5.4	-0.7	-7.3	-4.4	-14.8
COc1cccc(-n2c(=O)c3cc(OC)c(OC)cc3n(CC(=O)Nc3cc(C)[nH]n3)c2=O)c1	14.3	i	1.1	1.9	-10.2	-5.2	-5.0	5.7
